Compound activity deposited in PubChem BioAssay by National Center for Advancing Translational Sciences (NCATS).
D2 potentiator: Beta-Arrestin HTS for Positive Allosteric Modulators of the Human D2 Dopamine Receptor: Potentiators. D(2) dopamine receptor (Homo sapiens), P14416. DiscoveRx D2 beta-arrestin cells, luminescence, 90 min; 100% = 57 uM dopamine signal. potentiation, % (no concentration beside the values). hit rate 0.23% among 360,000; active = potentiation of 50% or more; inconclusive = 30% to 50%; inactive = 30% or less;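 also: compound concentration not given in the record; tested on top of an EC20 dose of dopamine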
Target sequence (P14416 whole entry, looked up): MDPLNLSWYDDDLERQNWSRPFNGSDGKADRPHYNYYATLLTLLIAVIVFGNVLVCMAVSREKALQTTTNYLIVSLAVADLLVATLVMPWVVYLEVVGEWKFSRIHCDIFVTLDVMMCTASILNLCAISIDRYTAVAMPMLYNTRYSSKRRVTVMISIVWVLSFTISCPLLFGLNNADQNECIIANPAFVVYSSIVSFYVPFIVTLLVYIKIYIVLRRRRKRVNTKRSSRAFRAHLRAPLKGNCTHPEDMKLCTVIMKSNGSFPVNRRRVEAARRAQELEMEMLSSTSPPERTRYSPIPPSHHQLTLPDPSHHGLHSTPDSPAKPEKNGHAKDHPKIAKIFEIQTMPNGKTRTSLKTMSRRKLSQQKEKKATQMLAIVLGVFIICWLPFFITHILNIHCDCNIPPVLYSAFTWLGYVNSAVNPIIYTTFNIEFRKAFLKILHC
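PathHunter D2 cells, attached overnight at 37 deg C, received compound in DMSO plus dopamine at EC20 (50 nM final) for 90 min at 37 deg C. Beta-arrestin recruitment was read as luminescence after 1 h with detection reagent at ambient temperature.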
gsp agonist: qHTS for Agonist of gsp, the Etiologic Mutation Responsible for Fibrous Dysplasia/McCune-Albright Syndrome: qHTS. gsp mutant cells, cAMP HTRF, 30 min; control for the full effect not named in the record. Potency, µM (titrated, usually from 76.9 µM), for inactives: at the highest dose activation (cAMP increase), most hits filed as activators. hit rate 0.13% among 340,000. AID 624287, 2012; active = well fitted activation curve with a large enough effect; inconclusive = small, poorly fitted or top-dose-only effect, or another doubt; inactive = no such curve, though single readings can be large or run the other way; cell line not stated here;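 also: phosphodiesterase inhibitor Ro 20-1724 added with compounds to block cAMP breakdown; potency is read from the fitted curve at half-maximal effect; nearly all actives have a fitted effect of over 60% in size; about a fifth of the inactives were tested at one dose only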
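Cells in DMEM/10% FBS with G418 were pretreated with compounds in DMSO plus […] (300 uM stock) for 30 min at 37C. cAMP was measured by HTRF (cAMP-d2 plus anti-cAMP antibody-K) after 30 min at room temperature.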
gsp antagonist: qHTS for Antagonists of gsp, the Etiologic Mutation Responsible for Fibrous Dysplasia/McCune-Albright Syndrome: qHTS; AID 624288, 2012; hit rate 0.4% among 340,000; Potency, µM (highest dose often 76.9 µM), for the others: at the top dose activity change, negative = inhibition, most hits filed as inhibitors; gsp-mutant cells, cAMP HTRF, 30 min; control for the full effect not named in the record; active = falling curve of any shape with a large fitted effect; inconclusive = falling curve, mostly with a smaller effect; inactive = flat or rising curve; cell line not stated here;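 also: intracellular cAMP measured with PDE inhibitor Ro 20-1724 present during compound exposure; potency is read from the fitted curve at half-maximal effect; % is scaled to controls: 0 for no effect and ±100 for the full control effect; nearly all actives have a fitted effect of over 65% in size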
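Measurement of cellular cAMP by homogeneous time-resolved fluorescence following a 30 min compound exposure at 37C. The PDE inhibitor […] was present throughout; the assay buffer was DPBS with 0.05% BSA and 0.005% Tween 20.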
TRPV1 potentiator: HTS Assay for Compounds that Act as Potentiators of the Vanilloid Receptor 1; Transient receptor potential cation channel subfamily V member 1 (Homo sapiens), Q8NER1; TRPV1-expressing cells, Fluo-8 calcium influx, capsaicin EC20 potentiation; host cell line not named in the record; control for the full effect not named in the record; potentiation, % at 8.33 µM; hit rate 0.02% among 320,000; active means potentiation above 80%; inconclusive means 30% to 80%; inactive means below 30%; also: 0% is about no effect
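Cells expressing TRPV1 were dye-loaded with Fluo-8 and read kinetically: 10 s baseline, 3 min after compound (agonist portion), then 2 min after EC20 capsaicin (allosteric enhancer portion). Calcium-bound dye fluorescence at 480/520 nm.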
Menin-MLL FL inh: qHTS Assay for Inhibitors Targeting the Menin-MLL Interaction in MLL Related Leukemias: Competition With Fluorescein Labeled MLL-derived Peptide | AID 1766, 2009 | FP activity change, % at 61.4 µM | 290,000 tested, under 10 active | Fluorescence polarization, fluorescein-MLL peptide displacement from menin; inconclusive = falling polarisation curve, or a change in total fluorescence; inactive = total fluorescence flat and polarisation flat or rising; no compound was filed as active; the % refers to the polarisation; negative = inhibition;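 also: % of control where 0% means no effect; inhibitors lower the polarisation; unlabelled MLL peptide was the positive control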
Sfp inh: qHTS Assay for Inhibitors of Bacillus subtilis Sfp phosphopantetheinyl transferase (PPTase); 4'-phosphopantetheinyl transferase ffp (Bacillus subtilis), Q9F4F7; AID 1490, 2009; hit rate 3.5% among 310,000; Potency, µM, for the others: max response, negative = inhibition, hits mostly inhibitors; Biochemical Sfp PPTase activity, qHTS; active = well fitted inhibition curve with a large enough effect; inconclusive = small, poorly fitted or top-dose-only effect, or another doubt; inactive = no such curve, though single readings can be large or run the other way;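 also: the enzyme is Sfp with the accession as filed and its product quenches rhodamine fluorescence; potency is read from the fitted curve at half-maximal effect; 0% = enzyme reaction without inhibitor and -100% = no enzyme wells; top concentration of the series not given in the record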
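With Hepes-Na pH 7.6 buffer containing 10 mM MgCl2, Sfp (15 nM) modified BHQ-2-YbbR (12.5 uM) using rhodamine-CoA (5 uM). Two reads 30 minutes apart at 525/598 nm yielded each well's rate.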
ClpP mod: qHTS Assay for Activators of ClpP | Potency, µM (doses to about 57.5 µM), for the others: at the highest dose activity change, negative = active | ATP-dependent Clp protease proteolytic subunit (Bacillus subtilis (strain 168)), P80244 | hit rate 1.9% among 340,000 | purified B. subtilis ClpP, FRET peptide cleavage, 20 min; active = well fitted falling curve with a large enough effect; inconclusive = small, poorly fitted or top-dose-only effect; inactive = no such curve, though single readings can be large or run the other way; also: potency is read from the fitted curve at half-maximal effect; the source files actives as falling curves though it sought activators and does not explain the sign; nearly all actives have a fitted effect of over 65% in size; many hits overshoot -100%
Target sequence (P80244 whole entry, looked up): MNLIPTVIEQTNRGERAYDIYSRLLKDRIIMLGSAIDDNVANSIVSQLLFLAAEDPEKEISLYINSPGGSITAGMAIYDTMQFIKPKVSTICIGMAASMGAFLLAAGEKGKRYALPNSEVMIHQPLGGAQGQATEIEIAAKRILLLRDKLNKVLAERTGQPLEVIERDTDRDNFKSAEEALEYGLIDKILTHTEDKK
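ClpP 10 microg/mL final, pH 8 Tris/KCl buffer with BSA, glycerol, Tween-20; compound pinned in; FRET-FV substrate; RT 20 min; Ex320/Em430; ΔFRET vs ADEP 5.8 microM, DMSO, no enzyme.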
* hit, by the source's call; ? = inconclusive; . = no result given; & = joins results of further samples; [ ] = another dose, or the depositor's remark.

canonical_smiles	D2 potentiator	gsp agonist	gsp antagonist	TRPV1 potentiator	Menin-MLL FL inh	Sfp inh	ClpP mod
Cc1nn(-c2ccccc2)c2sc(C(=O)C(C#N)c3ccccn3)cc12 (stereo not given)	.	.	.	13	0.2	9%	.
O=C(CCc1c[nH]c2ccccc12)N1CCN(S(=O)(=O)c2ccc([N+](=O)[O-])cc2)CC1	24	-24%	.	.	.	.	0.0%
Cn1nc(C(=O)N2CCN(c3cccc(Cl)c3)CC2)c2c1-c1ccccc1S(=O)(=O)C2	11	-25%	?	5	0.1	17%	-6.7%&-8.9%
CCCCNC(=S)N/N=C1\C(=O)c2cccc3cccc1c23	-11	-2%	-16%	9	5.8	15%	1.4%
Cc1nc(Nc2cccc(Cl)c2)c2oc3ccccc3c2n1	-7	3%[15.4 µM]	-15%	14	1.8	-26%	-1.7%
CN(C)c1nc(NC(C)(C)C)nc(SCC(=O)Nc2ccccc2)n1	-3	-13%[15.4 µM]	1%	-18	-0.4	6%	.
Cc1c(NC2(C#N)CCCCC2)c(=O)n(-c2ccccc2)n1C	-3	-15%[15.4 µM]	-8%	-6	-1.2	13%	.
Clc1ccc(-c2cc(COc3ccccc3)on2)cc1	5	?	3%	-3	0.8	4%	.
COCCOC(=O)c1c(NC(=O)CN2CCCc3ccccc32)sc(C(N)=O)c1C	-7	-3%	-11%	-1	3.1	5%	-0.7%
Cc1cccc(NC(=O)C2CCN(C(=O)N3CCOc4ccccc43)CC2)c1C	1	-137%	-1%	-4	-1.2	23%	-1.0%
Cc1cccc(N2CCN(C(=S)Nc3ccc4nc5n(c(=O)c4c3)CCCCC5)CC2)c1C	-4	-3%[15.4 µM]	-8%	3	7.3	4%	.
O=C1CC(c2ccccc2)n2nc(N3C(=O)CCC3=O)nc2N1 (stereo not given)	-16	8%	-1%	8	0.9	17%	-1.7%
CC(C)NC(=O)C(=O)NCC(c1ccc2c(c1)OCO2)N1CCOCC1 (stereo not given)	-3	5%	14%	9	4.2	13%	1.2%
O=C1CCCC/C1=C/Nc1ccc2c(c1)OCO2	-1	-33%[inhibitor]	-14%	-27	1.6	?	-5.9%
CCn1c(SCC(=O)Nc2ccc(Br)cn2)nnc1C1CC1	-12	-36%[inhibitor]	6%	7	.	-4%	-0.1%
CC(C)NC(=O)Nc1cccc2c1O[C@H](CN(C)S(=O)(=O)c1ccc(F)cc1)[C@@H](C)CN([C@H](C)CO)C2=O	-4	.	-6%	.	.	.	-1.7%
NC(=O)CSc1oc(-c2ccco2)nc1S(=O)(=O)c1ccc(Cl)cc1	-8	18%[15.4 µM]	-32%	-2	1.7	-2%	-1.7%&-2.6%
O=C(c1c[nH]c(C(=O)C(Cl)(Cl)Cl)c1)c1ccc(F)cc1F	-35	-1%	2%	7	0.0	-2%	-1.9%
CCO/C=C1\N=C(c2ccc(F)cc2)OC1=O	-5	11%[15.4 µM]	-11%	-2	2.2	?	-2.9%
O=C(O)C1CC(O)CN1C(=O)c1ccco1 (stereo not given)	-1	-22%	15%	23	2.5	12%	-0.7%
CCOc1ccc(NC(=S)N(CC)Cc2ccccc2)cc1	.	.	.	0	-5.1	11%	.
Cn1c(=O)nc2n(Cc3ccccc3)c3cccc(Cl)c3cc-2c1=O	-12	20%	-23%	22	1.8	-15%	-24%
COc1ccccc1N(CC(=O)NC1CCCC1)C(=O)CCCC(=O)Nc1ccccn1	-2	4%[15.4 µM]	-18%	6	-5.3	15%	.
Cc1ccc(NNC2CC(=O)N(c3cccc(Cl)c3)C2=O)cc1 (stereo not given)	-6	?	-13%	-13	2.9	-3%	.
CCOc1ccc(CN2CCN(Cc3[nH]c4ccc(OC)cc4c3C)CC2CCO)cc1 (stereo not given)	-17	-9%[15.4 µM]	.	8	4.4	8%	.
C/C(Cl)=C\Cn1c(N2CCCCCC2)nc2c1c(=O)n(C)c(=O)n2C	-13	27%	-6%	-14	2.0	0%	-2.3%
CCOc1cc(CNc2ccc(N(C)C)cc2)cc(Br)c1OCC(=O)NC(C)(C)C	25	-41%[inhibitor]	?	-14	-3.1	3.5µM*	-16%
CN(CC(=O)Nc1sccc1C#N)Cc1ccccc1	-10	-14%	9%	-12	13	-36%	-1.6%
Cc1cccn2c(=O)c3cc(C(=O)NC4CCCCC4)c(=N)n(Cc4ccc(F)cc4)c3nc12	-7	1%	16%	-25	-0.7	?	3.6%
CCOc1cc(-c2c(C)c(CC)nc(N)c2C#N)ccc1O	4	5%	4%	27	1.7	6%	34%
CCCCn1c(SCC(=O)NCCc2ccc(OC)c(OC)c2)nc2c1c(=O)n(C)c(=O)n2C	-6	12%	-8%	?	2.9	0%	0.6%
COC(=O)[C@H]1[C@H]2C[C@@H]3c4[nH]c5cc(OC)ccc5c4CCN3C[C@H]2C[C@@H](OC(=O)c2ccc(N)cc2)[C@@H]1OC	6	?	-12%	-1	?	10%	-9.9%
CCOc1ccc(S(=O)(=O)N2CCN(C3CC(=O)N(c4cccc(C(C)=O)c4)C3=O)CC2)cc1 (stereo not given)	-12	-26%	?	.	.	.	1.2%
CC1(C)CC(=O)C2=C(C1)Nc1[nH]c(=S)[nH]c(=O)c1C2c1ccccc1 (stereo not given)	-24	26%	4%	1	15	28µM*	5.9%
CCOC(=O)c1nc(NCc2cccnc2)c2ccccc2n1	-1	3%	6%	8	0.0	4%	-3.8%
C=CCn1c(CCNC(=O)c2cccs2)nnc1SCC(=O)Nc1cccc(C(C)=O)c1	-21	-15%	-13%	-2	2.9	14%	-2.3%
Cc1cc(O)c(CN2CCN(S(=O)(=O)c3cccs3)CC2)cc1C(C)C	-1	?	4%	-1	.	.	-1.9%
O=C(COC(=O)c1ccccc1O)Nc1cccc2ccccc12	-1	29%	2%	4	.	.	4.3%
Cc1cccc(C(=O)Nc2cccc(C(=O)NC3CCCC3)c2)c1	-25	4%	-9%	12	.	2%	-0.4%
CCOC(=O)C1C(c2ccc(O)c(O)c2)NC(=S)NC1(O)C(F)(F)F (stereo not given)	-2	7%	10%	-4	3.1	?	0.9%
Cc1ccccc1CSc1nnc(-c2ccncc2)n1C	-4	13%[15.4 µM]	3%	5	1.6	12%	-2.9%
O=C(CSc1n[nH]c(=O)[nH]c1=O)c1ccccc1	-24	6%	-2%	4	1.0	-17%	-9.9%
COc1ccc(C(=O)Nc2ccc(OC)c(OC)c2)cc1	-9	-6%	11%	-5	5.3	20%	0.0%
CCCCCCCNC(=O)C1(CC2CC(c3ccc(Cl)cc3)=NO2)CCN(C(=O)OC(C)(C)C)CC1 (stereo not given)	-1	.	-6%	-10	-8.1	5%	-2.4%
C[C@H](CO)N1C[C@H](C)[C@@H](CN(C)S(=O)(=O)c2ccc(F)cc2)Oc2c(NS(=O)(=O)c3ccccc3)cccc2C1=O	-3	.	0%	.	.	.	-2.0%
CCOCCCNc1nc2ccccc2[nH]1	-12	12%	6%	-3	1.7	0%	0.7%
COc1ccc(NC(=O)Cn2c3ccc(OC)cc3c3nc4n(c(=O)c32)CCS4)cc1	-5	11%	-12%	8	.	-1%	-24%
O=C(Nc1cc(=O)[nH]c2ncnn12)c1ccccc1Cl	-11	23%	-7%	13	?	13%	-2.3%
CC(C)(C)c1ccc(OCCCC(=O)Nc2ccc(S(N)(=O)=O)cc2)cc1	2	15%[15.4 µM]	-4%	-13	-2.0	6%	.
O=C(COC(=O)c1cncc(Br)c1)NCc1ccc2c(c1)OCO2	-9	-25%	7%	29	0.5	19%	-0.7%
Cc1ccc(-n2cc(-c3ccccc3)c3c(NN4CCOCC4)ncnc32)cc1	-29	-53%[inhibitor]	-30%	-24	0.5	-12%	-1.8%
COc1ccc(O)c(CN2CCCC(N3CCc4ccccc4C3)C2)c1 (stereo not given)	-3	-13%	-1%	-9	0.0	-4%	-1.0%
CCOc1cc(C2CC(=O)Nc3cc(C)c(C)cc32)ccc1O (stereo not given)	-4	15%	0%[15.4 µM]	-5	-4.5	-5%	-3.3%
O=C(NC(=S)NNC(=O)c1ccccc1[N+](=O)[O-])c1ccccc1	-30	-44%	4%	11	1.7	35µM*	-3.0%
Cc1ccc(CSc2ncnc3onc(C)c23)cc1	12	-1%[15.4 µM]	-1%	-5	2.3	1%	-0.3%
CCn1c(SC)nc2c(c1=O)SC(C)C2 (stereo not given)	-4	?	7%	13	5.5	11%	1.4%

(listing goes on)
canonical_smiles	D2 potentiator	gsp agonist	gsp antagonist	TRPV1 potentiator	Menin-MLL FL inh	Sfp inh	ClpP mod
CCCc1nc2ccccc2c(C(=O)OCC(=O)NCc2ccc3c(c2)OCO3)c1CC	-2	1%	?	-2	5.5	-5%	-2.4%
Cc1nnc(C)n1/N=C/c1cc(Br)ccc1O	0	35%	1%	2	-1.6	-22%	-2.1%
CN1CCC(N(C)C(=O)/C(C#N)=C\c2ccc(OC(F)F)cc2)CC1	-12	32%	11%	.	.	.	.
COc1cnc(-c2ccccc2)nc1Oc1cccc(C)c1C	-9	-23%	-8%	-7	3.9	2%	-1.2%
O=C(c1ccc(-c2cccc(C(F)(F)F)c2)o1)N1CCCCCCC1	0	-28%	-14%	-9	.	.	-15%
Cc1ccc([C@H]2C[C@H](n3cc(-c4ccc(F)cc4)nn3)[C@@H](O)CN2C(=O)c2cccs2)cc1	-4	-37%[inhibitor]	.	.	.	.	0.5%
O=C(Oc1ccccc1C(=S)N1CCOCC1)c1ccc([N+](=O)[O-])cc1[N+](=O)[O-]	58*	-26%	-11%	5	2.6	-20%	.
